Source: PubChem BioAssay
RVFV N-RNA FP = blocks Rift Valley Fever Virus nucleoprotein binding to RNA. P21700. RVFV N-RNA binding, fluorescence polarization; hits give low values. % bound, % (concentration not given with the values). 20,000 compounds, 0.1% hits. AID 651828;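 active means between 0 and 58% in either replicate with normal brightness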;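 further: 100 nL library stock added to about 12 µL; 100% = protein and probe without compound and 0% = probe alone; numbers are from one replicate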
Target sequence (P21700 whole entry, looked up): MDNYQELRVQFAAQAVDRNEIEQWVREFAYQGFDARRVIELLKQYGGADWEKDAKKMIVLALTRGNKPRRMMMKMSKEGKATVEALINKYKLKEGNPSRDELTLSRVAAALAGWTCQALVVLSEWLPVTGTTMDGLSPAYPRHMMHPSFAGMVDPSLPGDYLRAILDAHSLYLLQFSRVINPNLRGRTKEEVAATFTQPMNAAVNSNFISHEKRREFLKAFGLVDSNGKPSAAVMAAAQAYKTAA
Active calls of the source: *; & = joins results of further samples.

Compound | RVFV N-RNA FP
COc1nc(C)nc(Cl)c1NC1=NCCN1 | 95.4&97.3
O=C1NCC2(CCN(CCc3ccccc3)CC2)O1 | 94.5
COc1cc2nc(N3CCN(C(=O)C4COc5ccccc5O4)CC3)nc(N)c2cc1OC (stereo unspecified) | 103.6&104.4&95.1
Cc1cncc2cccc(S(=O)(=O)N3CCCN(C(=O)CN)C[C@H]3C)c12 | 95.9
CCCOc1ccccc1-c1nc2n[nH]nc2c(=O)[nH]1 | 94.1&97.6
CC[C@]1(O)CC2CN(CCc3c([nH]c4ccccc34)[C@@](C(=O)OC)(c3cc4c(cc3OC)N(C)[C@H]3[C@@](O)(C(=O)OC)[C@H](OC(C)=O)[C@]5(CC)C=CCN6CC[C@]43[C@@H]65)C2)C1 (stereo partly specified) | 91.1
NS(=O)(=O)c1cc2c(cc1C(F)(F)F)NC(Cc1ccccc1)NS2(=O)=O (stereo unspecified) | 92.1
O=C(O)COC(=O)Cc1ccccc1Nc1c(Cl)cccc1Cl | 95.7
O=C1NC(=O)[C@@]2(CCOc3ccc(F)cc32)N1 | 95.5
C=CC1=C(C(=O)O)N2C(=O)[C@@H](NC(=O)C(=NO)c3csc(N)n3)[C@H]2SC1 | 96.9
O=c1cc[nH]c(=O)[nH]1 | 102.3
c1ccc2c(CC3=NCCN3)cccc2c1 | 94.5&101.2

Next part:
Compound | RVFV N-RNA FP
C[C@H]1COc2c(N3CCN(C)CC3)c(F)cc3c(=O)c(C(=O)O)cn1c23 | 96.4&93.8
CCCCCCC/C=C\CCCCCCCCC(=O)O | 89.3
CCN(CC)CCCCNc1ncc2cc(-c3c(Cl)cccc3Cl)c(NC(=O)NC(C)(C)C)nc2n1 | 111.3
CC(=O)[C@H]1CC[C@H]2[C@@H]3C[C@H](C)C4=CC(=O)CC[C@]4(C)[C@H]3[C@@H](O)C[C@]12C | 107.7
CC(Oc1c(Cl)cccc1Cl)C1=NCCN1 (stereo unspecified) | 102.5&98.9&103.6
Nc1cc(-c2ccncc2)c[nH]c1=O | 102.6
CC(C)Cc1ccc([C@H](C)C(=O)O)cc1 | 99.9
CC(C)Cc1ccc(C(C)C(=O)O)cc1 (stereo unspecified) | 93.6&95.0&90.4
CC1(C)OC(=O)C(OCC2CC2)=C1c1ccc(S(C)(=O)=O)cc1 | 99.4
CS(=O)(=O)c1ccc(-n2nc(C(F)(F)F)cc2-c2ccc(F)cc2)cc1 | 108.3
CN(C)C/C=C(/c1ccc(Br)cc1)c1cccnc1 | 102.3
CN1CCC(=C2c3ccccc3CCc3sccc32)CC1 | 106.3

SMILES: c1ccc(Cc2nc(-c3ccncc3)n[nH]2)cc1
  RVFV N-RNA FP: 94.2
SMILES: COc1ccc(CN(CCN(C)C)c2ccccn2)cc1
  RVFV N-RNA FP: 98.8&100.3
SMILES: Nc1nc(Nc2ccc(S(N)(=O)=O)cc2)nn1C(=O)c1c(F)cccc1F
  RVFV N-RNA FP: 101.4
SMILES: C[C@]12CC3CC(N)(C1)C[C@@](C)(C3)C2
  RVFV N-RNA FP: 99.0&91.7
SMILES: CC[C@@H](CO)Nc1nc(NCc2ccc(-c3ccccn3)cc2)c2ncn(C(C)C)c2n1
  RVFV N-RNA FP: 104.7
SMILES: CCC1C(=O)OCC1Cc1cncn1C (stereo unspecified)
  RVFV N-RNA FP: 98.0
SMILES: O=C1N(c2ccccc2)c2ccccc2C1(Cc1ccncc1)Cc1ccncc1
  RVFV N-RNA FP: 98.1&96.3
SMILES: O=C(OC1CC2CC3C[C@@H](C1)N2CC3=O)c1c[nH]c2ccccc12 (stereo partly specified)
  RVFV N-RNA FP: 104.4
SMILES: COc1ccccc1OCC(O)COC(N)=O (stereo unspecified)
  RVFV N-RNA FP: 97.4
SMILES: Cc1cc2c(s1)Nc1ccccc1N=C2N1CCN(C)CC1
  RVFV N-RNA FP: 92.1&93.3

SMILES: CN(C)CCCN1c2ccccc2Sc2ccccc21
  RVFV N-RNA FP: 106.1
SMILES: N=C(N=C(N)N)N1CCOCC1
  RVFV N-RNA FP: 102.7&102.9
SMILES: CC(=O)O[C@]1(C(C)=O)CC[C@H]2[C@@H]3C=C(Cl)C4=CC(=O)[C@@H]5C[C@@H]5[C@]4(C)[C@H]3CC[C@@]21C
  RVFV N-RNA FP: 106.8&93.2
SMILES: Cc1coc2c1C(=O)C(=O)c1c-2ccc2c1CCCC2(C)C
  RVFV N-RNA FP: 89.4
SMILES: OC1(c2ccc(Cl)c(C(F)(F)F)c2)CCN(CCCC(c2ccc(F)cc2)c2ccc(F)cc2)CC1
  RVFV N-RNA FP: 103.1

Of the compounds above, these have a halogen.
SMILES: COc1nc(C)nc(Cl)c1NC1=NCCN1
  RVFV N-RNA FP: 95.4&97.3
SMILES: NS(=O)(=O)c1cc2c(cc1C(F)(F)F)NC(Cc1ccccc1)NS2(=O)=O (stereo unspecified)
  RVFV N-RNA FP: 92.1
SMILES: O=C(O)COC(=O)Cc1ccccc1Nc1c(Cl)cccc1Cl
  RVFV N-RNA FP: 95.7
SMILES: O=C1NC(=O)[C@@]2(CCOc3ccc(F)cc32)N1
  RVFV N-RNA FP: 95.5
SMILES: C[C@H]1COc2c(N3CCN(C)CC3)c(F)cc3c(=O)c(C(=O)O)cn1c23
  RVFV N-RNA FP: 96.4&93.8
SMILES: CCN(CC)CCCCNc1ncc2cc(-c3c(Cl)cccc3Cl)c(NC(=O)NC(C)(C)C)nc2n1
  RVFV N-RNA FP: 111.3
SMILES: CC(Oc1c(Cl)cccc1Cl)C1=NCCN1 (stereo unspecified)
  RVFV N-RNA FP: 102.5&98.9&103.6
SMILES: CS(=O)(=O)c1ccc(-n2nc(C(F)(F)F)cc2-c2ccc(F)cc2)cc1
  RVFV N-RNA FP: 108.3
SMILES: CN(C)C/C=C(/c1ccc(Br)cc1)c1cccnc1
  RVFV N-RNA FP: 102.3
SMILES: Nc1nc(Nc2ccc(S(N)(=O)=O)cc2)nn1C(=O)c1c(F)cccc1F
  RVFV N-RNA FP: 101.4
SMILES: CC(=O)O[C@]1(C(C)=O)CC[C@H]2[C@@H]3C=C(Cl)C4=CC(=O)[C@@H]5C[C@@H]5[C@]4(C)[C@H]3CC[C@@]21C
  RVFV N-RNA FP: 106.8&93.2
SMILES: OC1(c2ccc(Cl)c(C(F)(F)F)c2)CCN(CCCC(c2ccc(F)cc2)c2ccc(F)cc2)CC1
  RVFV N-RNA FP: 103.1

3 structures out of the list, sorted by formula weight, largest number first.
SMILES: OC1(c2ccc(Cl)c(C(F)(F)F)c2)CCN(CCCC(c2ccc(F)cc2)c2ccc(F)cc2)CC1
  RVFV N-RNA FP: 103.1
SMILES: Cc1coc2c1C(=O)C(=O)c1c-2ccc2c1CCCC2(C)C
  RVFV N-RNA FP: 89.4
SMILES: CN(C)CCCN1c2ccccc2Sc2ccccc21
  RVFV N-RNA FP: 106.1

A portion of the library, so the mix of outcomes need not match the whole.
